# VACV Venus inh: inhibitors of vaccinia virus (Venus reporter); Vaccinia virus Venus reporter expression, fluorescence; Potency, µM (titrated, usually from 36.5 µM), for inactives: at the highest dose activity change, negative = inhibition, actives largely listed as inhibitors; 330,000 tested, 0.46% active; AID 720580; active means well fitted inhibition curve with a large enough effect; inconclusive means small, poorly fitted or top-dose-only effect; inactive means no such curve, though single readings can be large or run the other way; tested in A549 cells; also: nearly all actives have a fitted effect of over 30% in size; inactives centre near -10
# VACV mCherry inh: inhibitors of vaccinia virus infection (mCherry reporter signal); Vaccinia virus mCherry reporter infection, fluorescence; about a quarter of the inactives have no number; 310,000 tested, 0.63% active; Potency, µM (series often up to 36.5 µM), for inactives: top-dose activity change, negative = inhibition, most hits filed as inhibitors; AID 720579; active = well fitted inhibition curve with a large enough effect; inconclusive = small, poorly fitted or top-dose-only effect; inactive = no such curve, though single readings can be large or run the other way; tested in A549 cells; also: nearly all actives have a fitted effect of over 35% in size; inactives centre near -10
# * = called active by the depositor; i = inactive; ? = inconclusive; / = not tested or not shown; & = joins results of further samples; [ ] = dose if it differs, or a comment. % is scaled to controls: 0 for no effect and ±100 for the full control effect; potency is read from the fitted curve at half-maximal effect.
molecule	VACV Venus inh	VACV mCherry inh
CCc1ccc(C2CC(c3cccc(OC)c3)n3nc(N)nc3N2)cc1 (stereo not given)	3%	-7%
S=c1[nH]nc(CN2CCCCC2)n1-c1ccc(Cl)cc1	-14%	i
COc1ccc(C(=O)NC2=NCCS2)cc1S(=O)(=O)N1CCOCC1	-3%	-14%
O=c1[nH]nc(CNc2ccc(O)cc2)c2ccccc12	17%	10%
CCOC(=O)C1CCN(S(=O)(=O)c2cccc(-c3cn4ccccc4n3)c2)CC1	-3%	/
COc1cc(CN2CCNC(=O)C2CC(=O)NC2CCCC2)cc(OC)c1 (stereo not given)	-15%	i
CCOC(=O)c1c(C)[nH]c(C)c1S(=O)(=O)N1CCC(C(=O)Nc2ccc(C)c(Cl)c2)CC1	-23%	-18%
Cc1cccc(NC(=O)CSCc2c(C)noc2C)c1C	-10%	-15%
O=C(Nc1ccc(F)cc1)N(Cc1ccco1)Cc1cc2cc3c(cc2[nH]c1=O)OCO3	?	/
Cc1ccc(S(=O)(=O)/N=C(\N)Nc2nc(C)c3ccc(C)cc3n2)cc1	-22%	-19%
CCOC(=O)NC(=O)COC(=O)c1ccc(O)cc1	-6%	-13%
CN(c1ccc(C(=O)O)cc1)S(=O)(=O)c1ccccc1	-6%	/
CCn1nc(C)c(Br)c1Nc1ccc(Br)cc1	0%	-5%
Cc1ccc(-n2nc(C(=O)Nc3ccc(F)cc3Cl)c(=O)n(C)c2=O)cc1	-7%	-8%
O=C(Cc1ccccc1Cl)Nc1ccc(S(=O)(=O)N2CCOCC2)cc1	-1%	-6%
CCn1cc(C(=O)NCCCOC)c(=O)c2cc(S(=O)(=O)N3CCc4ccccc4C3)ccc21	-9%	-24%
O=C(Cc1cccc(NC(=O)C2CCCN(C(=O)C3CCCC3)C2)c1)Nc1cccc(C(=O)N2CCCCC2)c1 (stereo not given)	-11%	-23%
CC(=O)Oc1ccc2c(C)c(CC(C)O)c(=O)oc2c1 (stereo not given)	1%	-6%
O=C(CN1C(=O)C2CC=CCC2C1=O)Nc1ccc(S(=O)(=O)NC2=NCCCCC2)cc1 (stereo not given)	-5%	-2%
CCOc1ccc(N(CC(=O)NC2CCCCCC2)S(=O)(=O)c2c(C)[nH]c(=O)[nH]c2=O)cc1	-13%	i

# Fetched one by one from the list above:
molecule	VACV Venus inh	VACV mCherry inh
Cc1ccc(S(=O)(=O)/N=C(\N)Nc2nc(C)c3ccc(C)cc3n2)cc1	-22%	-19%
CCOc1ccc(N(CC(=O)NC2CCCCCC2)S(=O)(=O)c2c(C)[nH]c(=O)[nH]c2=O)cc1	-13%	i

# Whole records from above:
# `CCn1cc(C(=O)NCCCOC)c(=O)c2cc(S(=O)(=O)N3CCc4ccccc4C3)ccc21` in the list: VACV Venus inh = -9%; VACV mCherry inh = -24%
# `O=C(Cc1cccc(NC(=O)C2CCCN(C(=O)C3CCCC3)C2)c1)Nc1cccc(C(=O)N2CCCCC2)c1` (stereo not given) in the list: VACV Venus inh = -11%; VACV mCherry inh = -23%
# `CCOC(=O)NC(=O)COC(=O)c1ccc(O)cc1` in the list: VACV Venus inh = -6%; VACV mCherry inh = -13%

# Next section:
molecule	VACV Venus inh	VACV mCherry inh
CCC(C)(C)NC(=O)C(c1ccc(OC)cc1)N(C(=O)CCC(=O)Nc1cc(C)on1)c1ccccc1OC (stereo not given)	-7%	-11%
Cc1ccc(NC(=O)c2cc3c([nH]c2=O)CC(C)(C)CC3=O)cc1	-16%	-15%
CC(C)(CC(=O)O)CC(=O)O	-3%	i
O=C(CSc1nc(=O)n2ccccc2n1)Nc1cccc2ccccc12	-14%	-18%
COc1ccc(NC(=O)CN2C(=O)C(C)Oc3ccccc32)cc1 (stereo not given)	-7%	-8%
COc1ccc(C(=O)OC(C(=O)c2ccccc2)c2ccccc2)cc1 (stereo not given)	-2%	-18%
CCc1ccc(CN2CCC(n3nccc3NC(=O)c3ccccc3C)CC2)cc1	-14%	i
OC(c1ccc(-c2ccccc2)cc1)c1ncc(-c2ccc(F)cc2)[nH]1 (stereo not given)	13%	16%
O=C(CCCC(=O)c1ccccc1)NCCc1ccccc1	-14%	i
CCN(CC)CCN(C(=O)C1=COCCO1)c1nc2c(OC)ccc(OC)c2s1	-16%	-21%
Cc1ccc(S(=O)(=O)n2cnc3cc([N+](=O)[O-])ccc32)cc1C	-13%	-15%
CSc1ncc(C(=O)Nc2cccc(C)c2C)c(-c2ccccc2)n1	2%	-10%
Cc1ccc(S(=O)(=O)/N=S(\C)C(C)C)cc1 (stereo not given)	0%	i
O=C(CCS(=O)(=O)c1ccc2c(c1)NC(=O)CS2)NCCc1ccc(Cl)cc1	20%[7.34 µM]	4%[7.34 µM]
N#CCCN(CCC#N)c1nncs1	0%	/
CCCCN1CCc2c1nc1ccc(Br)cc1c2N	-17%	-25%
Cc1cc(C)c(C#N)c(SCCS(=O)(=O)c2ccc(C(C)(C)C)cc2)n1	4.5µM*	3.5µM*
Oc1ccc(Br)cc1-c1cc(-c2ccc(Cl)cc2)n[nH]1	?	/
CCC(=O)Nc1ccc(N2CCCCC2)c(C(=O)Nc2ccccc2C)c1	-7%	-17%
CCN(C(=O)COC(=O)Cn1cnc2c1c(=O)n(C)c(=O)n2C)C1CCS(=O)(=O)C1 (stereo not given)	-14%	0%
Cc1cccc(C(=O)NC2C(=O)NNC2c2ccc(Cl)cc2)c1 (stereo not given)	0%	-20%
Cc1ccc(-c2csc3nc4cc(C(=O)NC5CCC(O)CC5)ccc4c(=O)n23)cc1 (stereo not given)	-22%	-11%
CCOC(=O)C1(C)CCCCN1C(=O)c1ccoc1 (stereo not given)	19%	9%
COc1ccc(-n2nc3c(c2NC(=O)C2CC(=O)N(c4ccccc4)C2)CS(=O)(=O)C3)cc1 (stereo not given)	-9%	-8%
Cc1ccc(N=C2NC(=O)/C(=C/c3cccn3C)S2)c(C)c1	-7%	-24%
O=C(Oc1ccc(F)cc1)c1ccc2c(=O)n3c(nc2c1)CCC3	-9%	-13%
CS(=O)(=O)N1N=C(c2ccc(Br)cc2)CC1c1cccs1 (stereo not given)	-28%	/
Cc1cn([C@H]2C[C@H](O)[C@@H](CCC(=O)NCc3cccc4ccccc34)O2)c(=O)[nH]c1=O	-8%	18%
Nc1cc2ccncc2c2ccccc12	-25%	-8%
O=C(O)c1ccc2c(c1)C(=O)N(C(Cc1ccccc1)C(=O)O)C2=O (stereo not given)	-3%	-3%
C=C(C)C1CC=C(C)/C(=N\NC(=O)CCC(=O)Nc2ccc(C)c(C)c2)C1 (stereo not given)	-3%	-5%
CC(Sc1nnc(-c2ccccc2F)o1)C(=O)Nc1ccc(N2CCOCC2)cc1 (stereo not given)	-15%	i
COc1ccccc1N(C)S(=O)(=O)c1ccc(C(=O)OCC(=O)NCC(F)(F)F)cc1	0%	0%
Cn1cc(C(=O)c2ccccc2)cc1-c1nc2ccccc2n1C	-28%	?
Cc1ccc(CNC(=O)C2CCCN(S(=O)(=O)c3ccc4c(ccn4C)c3)C2)cc1 (stereo not given)	6%	-11%
Cc1cccc(C)c1NC(=O)CN(C)S(=O)(=O)c1ccc2c(c1)n(C)c(=O)c(=O)n2C	1%	-9%
Cc1cccc(C)c1NC1=NCCCS1	-13%&-9%	-14%
Cc1cc(NC(=O)c2ccccc2F)nc2c1c(=O)oc1ccccc12	-4%	i
O=C(C[n+]1cccc(CNC(=O)c2ccc(OC(F)F)cc2)c1)Nc1ccc(F)cc1	-5%	-18%
CCC(C)(C)n1nnnc1CN1CCC(NC(=O)c2ccc(Br)cc2)CC1	-2%	/
CCOC(=O)N/N=C(C)/C=C/c1ccccc1	0%	i
Cc1ccc(SCCC(=O)Nc2ccc(Br)c(C)c2)cc1	-7%	-6%
COC(=O)c1nn(-c2ccccc2)c(Sc2ccc(OC)cc2)c1/C=N/O	-14%	/
Cc1ccc2c(C)cc(=S)[nH]c2c1	-15%	-6%
COC(=O)[C@H](C)NC(=O)c1cc2c(cn1)[nH]c1ccccc12	2%	-9%
Cc1ccc(C)c(Nc2cc(C(=O)NCCCN(C)C3CCCCC3)c3ccccc3n2)c1	-13%	-25%
CCCCNc1nc(C)c(C(C)=O)cc1C#N	-8%	-14%
CC(=O)OC[C@H]1O[C@@H](Oc2cc3ccc(=O)oc3cc2OC(C)=O)[C@H](OC(C)=O)[C@@H](OC(C)=O)[C@@H]1OC(C)=O	-15%	i
O=C(c1cccnc1)N1CCN(C(=O)c2cccc(Cl)c2)CC1	-12%	-15%
COC(=O)c1ccc(COC(=O)c2ccc(N(C)C)cc2)cc1	-11%	-22%
CC(=O)c1ccc(OCC(=O)Nc2ccc3nc(C)sc3c2)cc1	-7%	-4%
CCOc1cc(/C=N/Nc2nnc(C)n2N)ccc1OC(C)=O	?	28µM*
CCc1ccc(-c2cn3c(n2)sc2cc(C(=O)NCCc4ccc(OC)cc4OC)ccc23)cc1	-16%	-11%
CCCC(=O)NCCc1cc(OC)c(OC)cc1Br	-8%	-18%
CC(O)[C@H]1CNC(=O)C(=O)N1CC1CCCCC1 (stereo not given in full)	-1%	i
CCOC(=O)CSc1nc(-c2ccc(OCC)cc2)cc(C(F)(F)F)c1C#N	2%	0%
COc1cccc(C(=O)C2CCCN(Cc3cn(CC(N)=O)c4ccccc34)C2)c1 (stereo not given)	-17%	-2%
C=CCOc1c(Br)cc(CNn2cn[nH]c2=S)cc1OC	-16%	-3%
COc1ccc(NC(=O)CSc2nnc(-c3ccccc3)n2Cc2ccco2)c(OC)c1	-22%	/
C=CCC1NCCc2c(Br)cccc21 (stereo not given)	-8%	-9%

# Next structures follow.
molecule	VACV Venus inh	VACV mCherry inh
Cc1cc(C)c(C#N)c(SCC(=O)c2cc(C)n(CCc3ccccc3)c2C)n1	-25%	-7%
Cc1nnc(NC(=O)CSc2nnc(CNC(=O)c3ccc(S(=O)(=O)N(C)C)cc3)o2)s1	-5%	-11%
O=C(NCc1ccco1)C1CCN(C(=O)c2cc3sccc3n2Cc2ccc(Cl)cc2)CC1	?	?
CCOC(=O)Cc1nnc(NC(=O)c2cccc(OCC)c2)s1	-18%	/
CCCCOC(=O)Nc1nnc(CCc2ccccc2)s1	-10%	i
COc1ccc(OC)c(N(CC(=O)NN=C2CCN(C)CC2)S(=O)(=O)c2ccccc2)c1	-12%	i
O=C(NCC1CCCO1)C1CCCN(Cc2cnn(-c3ccccc3)c2-n2cccc2)C1 (stereo not given)	-14%	-11%[1.46 µM]
CNC(=O)CSc1nc2c(c(=O)n(C)c(=O)n2C)n1Cc1ccc(C)cc1	-7%	-14%
COc1cc([N+](=O)[O-])cc2cc(C(=O)NC(C)(C)C)c(=O)oc12	-2%	0%
CC(C)(C)OC(=O)NS(=O)(=O)NOCc1ccccc1	1%	-12%
COc1ccc(-c2nn(-c3ccccc3)cc2/C=N/NS(=O)(=O)c2ccccc2)cc1	-2%	-25%
O=C(NC(=S)Nc1ccc(S(=O)(=O)N2CCCCCC2)cc1)c1cccs1	-20%	-19%
CC(NC(=O)Cn1c(NCCO)nc2ccccc21)c1ccccc1 (stereo not given)	-14%	/
COc1ccc(Cl)cc1NC(=O)CSC1=Nc2ccccc2C2=NC(CCC(=O)NCc3ccco3)C(=O)N12 (stereo not given)	-10%	-2%
Cc1nc(C(=O)N2CCCC(N3CCN(c4ccccc4C)CC3)C2)cs1 (stereo not given)	-17%	-6%
CC(C)(CNC(=O)c1ccc(NS(=O)(=O)c2ccc(F)cc2)cc1)N1CCOCC1	-18%	i
COc1ccnc(N=CNOCc2cccc(Cl)c2Cl)c1C#N	-16%	-3%
CN(C)c1cc[n+](CC(=O)c2ccc(OC(F)F)cc2)cc1	-8%	-21%
COc1ccc(N(CC(=O)N2CCC(C)CC2)S(=O)(=O)c2c(C)nn(C)c2C)cc1	-11%	i
O=C(Nc1ccc(S(=O)(=O)N2CCCC2)cc1Cl)C1=COCCO1	-17%	-1%
CC(=O)CCC(C)=O	?	13µM*
Cc1ccc(-c2cc(C(=O)N/N=C/c3c[nH]c4ccccc34)[nH]n2)cc1	-17%	?
Cc1ccc(S(=O)(=O)N(C)C[C@@H]2Oc3ncc(Br)cc3C(=O)N([C@H](C)CO)C[C@H]2C)cc1	-14%	0%
COc1ccc(C(C)=O)cc1COC(=O)c1cc(C)nc2ccccc12	-14%	i
CC(=O)C[C@H](O)CC(=O)[C@@H]1OC(=O)CCCCCCCCc2ccccc21	-12%	-5%
CCN(CC)c1cc2c(c3c1ccn3C)C1CCC2O1 (stereo not given)	1%	30%
N=C(c1ccc([N+](=O)[O-])cc1)N1CCCCC1	-10%	i
CC(C(=O)NC1CCCCC1)N1C(=O)C2C3C=CC(C3)C2C1=O (stereo not given)	-9%	i
O=C(COc1ccccc1Cl)Nc1ccc(-c2nc3ccccc3s2)cc1	-5%	-10%
Cc1ccc(NCc2cccn2-c2nnc(N3CCC(C(=O)NCCc4ccccc4)CC3)s2)cc1	-20%	-26%
COc1ccc(-n2nc3cc(C)c(NC(=O)c4ccc(-c5ccc(Br)cc5)o4)cc3n2)cc1	-8%	-8%
Cc1ccc(-c2nnc(SC(C)C(=O)NCc3ccco3)n2C)cc1 (stereo not given)	-22%	i

# Bioassay records: PubChem BioAssay, National Center for Advancing Translational Sciences (NCATS)
